High-throughput results: PubChem, several laboratories
Mtb H37Rv – M. tuberculosis H37Rv growth inhibitors, H37Rv strain (AID 1626) | 220,000 compounds, 0.95% hits | one-dose inhibition, % at 10 µM; IC50 in µM for titrated hits | M. tuberculosis H37Rv growth inhibition; higher % means a stronger effect;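 active means confirmed in a dose series; inconclusive means inhibition above 80% but not taken into the dose series; inactive means below 80% or under 30% at every dose of the series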;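 further: bacteria incubated seven days before Alamar blue readout; 0% = bacteria only wells and 100% = bacteria with antibiotic wells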
Arbovirus inh – blocks arbovirus infection; arbovirus infection cell-based antiviral screen; inhibition, % at 10 µM; 200,000 compounds, 0.37% hits; AID 1251;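 active means inhibition from about 30%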;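 further: bluetongue infection of BSR cells; cell survival read as ATP light after 72 h; 0% = infected wells without compound and 100% = uninfected wells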
Mtb betalactam – beta-lactam sensitization of Mtb H37Rv | M. tuberculosis H37Rv growth with meropenem, percent inhibition; hits of this screen are not shown here | inhibition, % at 25 µM | 330,000 compounds, 0.27% hits;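 active means about 74% or more and at least 40 points above the plate without the antibiotic, then above 30% in a dose series; inconclusive means first-round hits that could not be retested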;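 further: growth measured after seven days incubation then overnight dye step; 0% = bacteria only wells and 100% = bacteria with antibiotic; twin plates without the antibiotic show which effects depend on it; some results filed as inactive read as strong as hits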
RecA intein inh – inhibitors of M. tuberculosis RecA intein splicing | cell-free RecA intein splicing, fluorescence | AID 2221 | P9WHJ3 | 290,000 compounds, 0.75% hits | inhibition, %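 (about 9 µM by stock and volumes)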; in the data active means inhibition above about 30%; inconclusive means no clear call, values can overlap the other calls;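 further: 0% = vehicle wells and 100% = reference inhibitor control wells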
Target sequence (P9WHJ3 whole entry, looked up): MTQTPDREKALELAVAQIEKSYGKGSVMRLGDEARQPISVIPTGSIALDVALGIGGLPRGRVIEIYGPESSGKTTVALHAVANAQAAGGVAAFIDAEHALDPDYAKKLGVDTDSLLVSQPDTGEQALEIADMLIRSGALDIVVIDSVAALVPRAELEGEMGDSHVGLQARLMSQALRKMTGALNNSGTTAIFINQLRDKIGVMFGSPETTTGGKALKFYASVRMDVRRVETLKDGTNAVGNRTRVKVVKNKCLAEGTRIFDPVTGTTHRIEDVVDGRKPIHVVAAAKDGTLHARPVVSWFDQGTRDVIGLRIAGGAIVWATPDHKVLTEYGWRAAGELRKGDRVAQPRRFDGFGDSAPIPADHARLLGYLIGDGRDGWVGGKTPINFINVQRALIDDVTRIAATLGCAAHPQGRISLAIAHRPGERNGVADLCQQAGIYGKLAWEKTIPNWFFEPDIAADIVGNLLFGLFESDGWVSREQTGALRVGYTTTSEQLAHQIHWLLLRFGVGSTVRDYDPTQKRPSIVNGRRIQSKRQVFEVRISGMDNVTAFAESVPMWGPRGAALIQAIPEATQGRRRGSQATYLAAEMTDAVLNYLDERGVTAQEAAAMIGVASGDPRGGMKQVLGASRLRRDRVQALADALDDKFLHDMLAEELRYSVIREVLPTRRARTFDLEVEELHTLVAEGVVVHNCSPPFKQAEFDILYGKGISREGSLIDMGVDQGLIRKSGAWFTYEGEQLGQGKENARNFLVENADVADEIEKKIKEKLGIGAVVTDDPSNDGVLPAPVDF
YopH PTP inh – YopH (Yersinia) phosphatase inhibition | fluorescence Ex485/Em525 | inhibition, %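 (about 10 µM by stock and volumes)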 | 140,000 compounds, 0.16% hits;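 active means inhibition of 50% or more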;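 further: controls were vehicle for no effect and minimum signal wells for full effect; inactives centre near -20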
Arbovirus inh repeat – also measured in Arbovirus inh; calls as there; inhibition, %; measured here: 10K subset replicate screen; many hits read low in the repeat;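 first of two repeat runs on a subset; 0% = infected and 100% = uninfected wells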
Starred values were filed as active, the others as inactive; ? = inconclusive; · = no result given; & = joins results of further samples. Not all compounds are listed; count on the stated rates, not on these rows.

SMILES	Mtb H37Rv	Arbovirus inh	Mtb betalactam	RecA intein inh	YopH PTP inh	others
O=C(CN1C(=O)/C(=C/c2ccccc2)SC1=S)Nc1ncc(Cc2ccccc2)s1	·	-2	62	0.0	4
Cc1ccc(C2=NC(C(F)(F)F)(C(F)(F)F)c3c(n(-c4ccc(F)cc4)c(=O)[nH]c3=O)N2)cc1	5%	14	3	-3.6	-32
Cc1cccc(-c2nc(C#N)c(NCC3CCCO3)o2)c1 (configuration not stated)	9%	·	-8	-2.5	·
Cn1c(=O)cc(SCC(=O)NCc2ccco2)c2ccccc21	-3%	5	0	-1.7	-46
Cc1ccc(/C=C/S(=O)(=O)Nc2ccc(C)cc2)cc1	2%	-13	4	4.2	·
S=c1[nH]nc(-c2ccccn2)n1/N=C/c1ccc(-c2ccccc2Br)o1	4%	-3	·	0.9	·
CCCCNC(=O)c1c(CSc2ccc(Cl)cc2)noc1C(=O)NCCC	·	·	2	1.6	·
O=C1CSC(c2cccnc2)N1CC1CC1 (configuration not stated)	-1%	·	1	7.4	·
C[C@@H](C(=O)O)[C@@H]1C[C@@]1(C)[C@@H](NC(=O)OCc1ccccc1)c1ccccc1	-23%	8	1	-1.5	-34
CCc1ccc(C(C)(O)C(CN2CCOCC2)c2ccccc2)cc1 (configuration not stated)	·	·	?	-2.4	·

Reprinted from the part before: two compounds, followed by the next part.
SMILES	Mtb H37Rv	Arbovirus inh	Mtb betalactam	RecA intein inh	YopH PTP inh	others
C[C@@H](C(=O)O)[C@@H]1C[C@@]1(C)[C@@H](NC(=O)OCc1ccccc1)c1ccccc1	-23%	8	1	-1.5	-34
CCc1ccc(C(C)(O)C(CN2CCOCC2)c2ccccc2)cc1 (configuration not stated)	·	·	?	-2.4	·
N#Cc1ccccc1CSc1nc(N2CCCCC2)nc(N2CCCCC2)n1	11%	7	-1	6.2	22
O=C1c2cccc3c(Cl)ccc(c23)C(=O)N1O	-3%	-23	49	-0.5	-41
CC(Cc1ccccc1)C(=O)N[C@@H](CO)Cc1ccccc1 (some centres not stated)	-15%	5	-3	3.6	-19
CCN(CC)C(=O)CSc1nnc(CNc2ccc(F)cc2)n1Cc1ccco1	6%	0	5	5.5	-3
N#Cc1c(N)c2ccccn2c1C(=O)c1ccc(Br)cc1	·	·	0	0.0	·
O=C(COc1cc(O)c2c(=O)cc(-c3ccccc3)oc2c1)c1ccc(F)cc1	9%	11	3	3.3	-23
COC(=O)N1C(=O)[C@@](Cc2ccccc2)(c2ccccc2)N1C(=O)OC	·	·	-4	0.2	·
Cc1ccc(/C=C/C(=O)c2ccccc2O)cc1	12%	·	3	1.7	·
Cn1ncc(Cl)c1C(=O)N1CCC(Cc2ccccc2)CC1	·	·	-5	4.8	·
Cc1ccccc1NN=Nc1nc2c([nH]1)c(=O)n(C)c(=O)n2C	0%	-10	-1	·	-21
COc1ccccc1CNS(=O)(=O)c1c(C)noc1C	-13%	1	-4	-0.5	-21
CC(C)Cn1c(N)c(C(=O)CSc2ncnc3sc4c(c23)CCCC4)c(=O)n(C)c1=O	0%	3	10	-0.6	-19
O=C(NNC(=O)c1ccccn1)c1cccc([N+](=O)[O-])c1	?	-34	95	-2.2	·
COc1ccc(-c2nnc(SCC(=O)c3ccco3)n2-c2ccccc2)cc1	-2%	3	-1	-0.1	8
CCn1c(SCc2nc3ccccc3c(=O)[nH]2)nc2ccccc21	12%	-1	0	0.8	·
COC(=O)c1c(NC(=O)Nc2ccc(Cl)cc2)sc(C)c1C	·	9	3	·	-29
O=C(Nc1cccc(OC(=O)c2cccnc2)c1)c1cccnc1	0%	6	-8	0.2	15
COc1ccc(Nc2nnc(SCc3cc(=O)n4ccsc4n3)s2)cc1	-9%	1	?	-14	-13
CCN(C(=O)Cc1c(C(=O)O)[nH]c2ccccc12)c1ccc(OC)cc1	1%	7	12	-0.6	·
CC(C)c1nc2sc3c(=S)nc[nH]c3c2c2c1CCC2	9%	·	-6	-2.4	·

Looked up by structure from the list above (four):
SMILES	Mtb H37Rv	Arbovirus inh	Mtb betalactam	RecA intein inh	YopH PTP inh	others
CC(C)c1nc2sc3c(=S)nc[nH]c3c2c2c1CCC2	9%	·	-6	-2.4	·
COc1ccccc1CNS(=O)(=O)c1c(C)noc1C	-13%	1	-4	-0.5	-21
O=C(NNC(=O)c1ccccn1)c1cccc([N+](=O)[O-])c1	?	-34	95	-2.2	·
CCn1c(SCc2nc3ccccc3c(=O)[nH]2)nc2ccccc21	12%	-1	0	0.8	·

More entries follow.
SMILES	Mtb H37Rv	Arbovirus inh	Mtb betalactam	RecA intein inh	YopH PTP inh	others
O=C(Nc1c2c(nn1-c1ccc(Cl)cc1)CS(=O)(=O)C2)c1ccccc1	·	·	-1	0.6	·
CCCCCCSc1cc(-c2nc3ccc(Cl)cn3c2NCCCC)ccc1OC	·	·	-2	-2.6	·
C/C(=N\OCC(=O)Nc1ccc(Br)cc1)c1cccs1	4%	-16	-6	5.6	·
O=Nc1c(O)n(Cc2ccc(Cl)c(Cl)c2)c2ccccc12	-6%	-16	9	25	-19
COc1cc(CN2CCN(S(=O)(=O)c3ccccc3)CC2)cc(OC)c1OC	·	·	-3	1.2	·
CCC(=O)N1CCc2cc(Br)cc(S(=O)(=O)NCc3ccco3)c21	-5%	4	5	1.0	-31	Arbovirus inh repeat=-1
CCCn1ccc2c(OCC(=O)Nc3ccc(NC(C)=O)cc3)cccc2c1=O	·	·	0	1.5	·
Cc1nnc2n1-c1ccc(Cl)cc1C(c1ccccc1)=NC2	-1%	-8	·	·	·
CCCN1C(=O)c2cc(C(=O)Nc3ccc(OC)cc3OC)ccc2C1Nc1ccc(OC)cc1OC (configuration not stated)	13%	4	82	-1.5	·
O=c1[nH]c(=O)n(Cc2ccc(Oc3ccccc3)cc2)cc1Br	·	·	-4	2.5	·
Cn1cc(CN2CCC(C(O)CCc3ccccc3)CC2)c(-c2ccccc2F)n1 (configuration not stated)	-5%	0	-1	1.1	·
O=C(NCc1n[nH]c(=O)c2ccccc12)C1CC(=O)N(c2ccc(Cl)cc2)C1 (configuration not stated)	·	·	-13	-0.2	·
CN(C(=O)CSc1cc(C(=O)c2nccn2C)c2ccccc2n1)c1ccccc1	3%	·	17	1.7	·
COc1ccc(S(=O)(=O)N2CCCCC2)cc1NC(=O)C1CCCO1 (configuration not stated)	-4%	4	-3	-0.3	·
COC(=O)c1[nH]c2ccc(Br)cc2c1NC(=O)Oc1ccccc1	-6%	4	7	-9.6	-14
Cc1cc(C(F)(F)F)nn1C(=O)c1cccnc1Cl	-2%	-3	-1	-1.2	-9
CCN1CCN(C(=O)Cn2ncc3c([nH]c4ccc(C)cc43)c2=O)CC1	·	·	-2	-2.0	·
Cc1ccc(NC(=S)N2CCN(S(=O)(=O)c3ccccc3)CC2)cc1C	·	·	1	0.0	·
Cc1occc1C(=O)N/N=C/c1ccc(Cl)c([N+](=O)[O-])c1	4%	-6	8	-0.8	-32
O=C1CC(N(O)c2ccccc2)C(=O)N1c1cc(Cl)cc(Cl)c1 (configuration not stated)	-8%	5	5	-1.3	-29
Nc1nc(N)nc(-c2cc(Cl)ccc2Cl)n1	-1%	·	-1	-2.7	·
CN1CCN(c2ccc(NC(=O)c3cc([N+](=O)[O-])ccc3N3CCOCC3)cc2)CC1	·	·	9	2.1	·
CCOC(=O)C1=C(O)/C(=C\c2ccc(OC)c(OC)c2)N=C1C	-4%	7	7	-4.4	-9
Cc1nnc2ccc(-c3ccc(NC(=O)Cc4cccs4)cc3)nn12	·	·	6	1.0	·
O=C(CCn1c(=O)c2cccn2c2ccccc21)Nc1ccc(F)cc1	·	·	-2	-1.0	·
COc1ccccc1NC(=O)c1cc2n(n1)C(C(F)(F)F)CC(c1ccc3c(c1)OCO3)N2 (configuration not stated)	3%	1	17	-1.9	1
O=C(CN1CCCCC1)Nc1nnc(-c2ccc([N+](=O)[O-])cc2)s1	·	17	95	0.3	4
CC(=O)Nc1nnc(SCc2ccc(C(=O)Nc3ccccc3F)cc2)s1	0%	5	-8	-1.9	·
O=C(NCC(c1cccnc1)N1CCN(c2ccccc2F)CC1)Oc1ccccc1 (configuration not stated)	0%	11	-1	0.7	-16
COc1ccccc1N1CCN(C(=O)CCNS(=O)(=O)c2ccc3c(c2)CCC(=O)N3)CC1	-6%	4	-7	-2.3	1
Cc1c(CCO)sc[n+]1CC(=O)OC12CC3CC(CC(C3)C1)C2	8%	6	-5	-0.1	-47
Cn1c(N2CCOCC2)c(C=O)c2ccccc21	·	·	1	-1.3	·
CC(=O)N1CC(=O)N=C1SCC(=O)Nc1nc(-c2ccccc2)c(-c2ccccc2)s1	-6%	-2	-4	2.9	-6
C=CCNC(=O)c1ccccc1S(=O)c1ccccc1C#N (configuration not stated)	0%	5	-17	0.9	-45
COCCNCC(=O)N1c2ccccc2Sc2ccccc21	·	·	0	-0.5	·
Cc1ccc(C)c(C(=O)CSc2nc(N)cc(=O)[nH]2)c1	·	·	-10	-0.3	·
CCOC(=O)C(NC(C)=O)(NS(=O)(=O)c1ccccc1)C(F)(F)F (configuration not stated)	1%	-3	0	-0.8	-14
CCc1ccc2[nH]cc(C(=O)N3CCCCCC3)c(=O)c2c1	5%	-1	99	-0.3	-28
Cc1cccc(CN2CCN(CC(=O)NCCCN3CCCC3=O)C2=O)c1	-7%	5	1	-3.5	-13
Cc1ccc(S(=O)(=O)NCc2ccc(C(=O)NC3CCCCC3)cc2)cc1	·	·	6	3.3	·
COc1ccc(/C=N/Nc2nncc3ccccc23)cc1	-6%	-5	-4	-2.1	-27
CCOC(=O)CCCNC(=O)COC(=O)CCC(=O)c1ccc(F)cc1	-2%	-2	-17	-1.0	-48
COc1ccnc(Nc2cccc(C)c2)c1C#N	-5%	1	14	0.3	-36
CCn1cc(Br)c(C(=O)Nc2sc3c(c2C(N)=O)CCCC3)n1	·	·	-10	-4.8	·
CN(C)CCN1CCc2ccccc21	0%	7	-4	-2.2	1
COc1ccc(C)cc1S(=O)(=O)N(CC(N)=O)Cc1ccccc1	-2%	1	-7	3.6	-18
Cc1cc(NC(=O)CCC(=O)NNC(=O)c2ccc(C(C)(C)C)cc2)no1	-5%	-4	-3	-1.2	-29
COc1ccccc1C(=O)NC(=O)COC(=O)c1ccc([N+](=O)[O-])cc1Cl	·	·	33	-2.0	·
CCOC(=O)N1CCN(C(=O)Cn2nc(C)n3nc(-c4ccccc4)cc3c2=O)CC1	·	·	7	-0.4	·
COc1cccc(CN2CCNC(=O)C2CC(=O)N(C)CC2CCOCC2)c1OC (configuration not stated)	·	·	5	0.1	·
(continued)
SMILES	Mtb H37Rv	Arbovirus inh	Mtb betalactam	RecA intein inh	YopH PTP inh	others
Cc1cc(C)c(S(=O)(=O)N2CCN(C(=O)c3cccs3)CC2)c(C)c1	-3%	1	-2	0.6	·
COc1ccccc1/C=C/C=N/NC(=O)CCn1nnc2ccccc21	3%	-17	0	1.5	-35
COCCN1CN(S(=O)(=O)c2ccc(Cl)cc2)c2nc3ccccc3nc21	-7%	-7	-6	5.8	-13
Cc1ccc(-n2ncc3c(NNC(=O)c4ccco4)ncnc32)cc1C	·	·	16	4.8	·
CSc1nnc(CNC(=O)c2ccccc2)n1-c1cccc(C)c1	-1%	8	5	3.7	-35
CCC(=O)Oc1ccc2c(C)cc(=O)oc2c1C(=O)c1ccccc1	3%	-1	-10	4.9	-42
Cc1nccn1-c1cc(C(C)(C)C)nc2c(-c3ccccc3)cnn12	3%	2	0	·	-23
Cc1ccc(C(=O)N(CN2CCCC2=O)c2ccc(F)cc2)cc1	-11%	5	-2	-0.3	-42
COc1ccc(OC)c(NC(=O)C2CCN(c3cc(-c4ccccc4)nc4ncnn34)CC2)c1	?	-1	8	1.4	-22
CCOC(=O)c1nc2sc3c(c2c(=O)[nH]1)CCCC3	4%&6%	6	10	-5.8	-148	Arbovirus inh repeat=7
COc1ccc(C)cc1NC(=S)NC12CN3CN(CN(C3)C1)C2	-10%	4	0	-2.2	·
O=C(O)COc1ccccc1/C=C1\C(=O)NC(=O)N(CCC2=CCCCC2)C1=O	-1%	·	-7	0.6	·
CC1CN(S(=O)(=O)c2ccc(C(=O)O)cc2)CC(C)O1 (configuration not stated)	-9%	·	-10	-0.2	·
C=CCOc1ccccc1/C=N/O	13%	5	0	-6.7	-33
Cc1nc(C)c(/C(O)=C/c2nc3ccc([N+](=O)[O-])cc3oc2=O)o1	5%	4	-8	-2.8	·
CN(C)/C=C/C(=O)c1cnc(-c2ccccc2Cl)s1	10%	-1	11	1.6	·
Cc1ccc(S(=O)(=O)N2CCC(C)CC2)cc1C(=O)NCc1ccccn1	·	·	0	-1.2	·
CC(Oc1cccc(Cl)c1)C(=O)Nc1nc(-c2ccccn2)cs1 (configuration not stated)	·	·	90	7.5	·
COc1ccc(-c2nn(CCC#N)cc2C(=O)NCc2ccccc2)cc1	-6%	·	4	-0.5	·
Nn1c(SCC(=O)N2CCOCC2)nnc1C1CC1	-3%	3	-5	1.2	·
